Sfp PPTase inh: inhibitors of Bacillus subtilis Sfp phosphopantetheinyl transferase; 3.5% of 310,000 active; Potency, µM, inactives show max response, negative = inhibition, actives largely listed as inhibitors; Q9F4F7; Biochemical Sfp PPTase activity, qHTS; active means well fitted inhibition curve with a large enough effect; inconclusive means small, poorly fitted or top-dose-only effect, or another doubt; inactive means no such curve, though single readings can be large or run the other way;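 further: the enzyme is Sfp with the accession as filed and its product quenches rhodamine fluorescence; potency means the concentration at half of the fitted maximal effect; 0% = enzyme reaction without inhibitor and -100% = no enzyme wells; top concentration of the series not given in the record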
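Reaction rates are the 30-min fluorescence difference (ex 525, em 598 nm) in wells containing 15 nM Sfp, 5 uM rhodamine-CoA and 12.5 uM BHQ-2-YbbR at pH 7.6 with 10 mM MgCl2.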
CtBP-E1A blk: blocks the CtBP interaction with E1A | 0.49% of 340,000 active | AlphaScreen GST-E1A/His-CtBP binding, 1536-well; hits give low values; control for the full effect not named in the record | AID 651724 | activity change, % (concentration not given with the values); in the data active means activity change below about -65%; inconclusive means about -30% to -65%; inactive means above about -30%; further: on the % scale 0 is the no-effect control and ±100 the full control effect
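Protein mix (5X: 125 nM each GST-E1A, His-CtBP) was incubated with pinned compound 2 h at 37 deg C in dark, in 50 mM Tris pH 8.0 buffer with 300 mM NaCl. Glutathione donor and nickel acceptor beads followed; AlphaScreen signal read after 1 h.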
D2 PAM: positive allosteric modulators of human D2 dopamine receptor | P14416 | potentiation, % (no concentration beside the values) | DiscoveRx D2 beta-arrestin cells, luminescence, 90 min; 100% = 57 uM dopamine signal | 0.23% of 360,000 active | AID 624464; active = potentiation of 50% or more; inconclusive = 30% to 50%; inactive = 30% or less;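 further: compound concentration not given in the record; tested on top of an EC20 dose of dopamine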
Target sequence (P14416 whole entry, looked up): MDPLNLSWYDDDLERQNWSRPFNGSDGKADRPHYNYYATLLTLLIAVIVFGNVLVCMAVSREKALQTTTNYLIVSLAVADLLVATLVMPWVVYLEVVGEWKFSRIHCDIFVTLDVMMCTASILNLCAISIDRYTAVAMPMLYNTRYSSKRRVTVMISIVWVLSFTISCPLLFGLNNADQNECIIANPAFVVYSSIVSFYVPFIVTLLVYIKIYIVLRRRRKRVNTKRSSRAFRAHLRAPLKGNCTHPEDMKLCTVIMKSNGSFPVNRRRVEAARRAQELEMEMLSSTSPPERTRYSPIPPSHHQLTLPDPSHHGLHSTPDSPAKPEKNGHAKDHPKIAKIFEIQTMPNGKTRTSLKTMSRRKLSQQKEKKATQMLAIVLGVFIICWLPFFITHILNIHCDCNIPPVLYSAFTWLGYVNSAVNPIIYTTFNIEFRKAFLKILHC
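PathHunter beta-arrestin assay in DiscoveRx D2 cells. Compounds were added with an EC20 of dopamine (50 nM final) for 90 min at 37 deg C. Luminescence was read 1 h after detection reagent, with 57 uM dopamine as the EC100 control.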
PINK1 expr mod: changes PINK1 expression; PINK1 immunofluorescence, high-content cytometry, 24 h; Potency, µM (highest dose often 76.6 µM), for inactives: top-dose activation (PINK1 increase), usual class: activators; 0.2% of 410,000 active; active = well fitted activation curve with a large enough effect; inconclusive = small, poorly fitted or top-dose-only effect; inactive = flat fitted curve, though single readings scatter; cell line not stated here;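 further: potency means the concentration at half of the fitted maximal effect; % of control where 0% means no effect; nearly all actives have a fitted effect of over 65% in size; a mitochondrial uncoupler was the plate control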
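Decision-based qHTS: stable cells, 24 h exposure to five compound concentrations, CCCP as control. Fixed cells stained for PINK1 plus nuclear, mitochondrial and cell markers, cytometer read.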
D2 agonist: agonists of human D2 dopamine receptor (beta-arrestin); activation, % (test concentration not listed); P14416; 0.084% of 360,000 active; DiscoveRx PathHunter D2 beta-arrestin, luminescence, 90 min; 100% = 57 uM dopamine signal; AID 624465; in the data active = activation above about 40%; inconclusive = about 15% to 40%; inactive = below about 15%; further: compound concentration not given in the record; the text of the record calls up to 30% inactive
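DiscoveRx PathHunter D2 beta-arrestin cells (2,100/well) attached overnight, then compound-stimulated 90 min at 37 C in HBSS/10 mM HEPES/0.1% Tween-20 buffer; beta-galactosidase complementation read by luminescence after 1 h at ambient temperature. Dopamine 57 uM final (EC100) as control.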
Six1-Eya2 inh: blocks human Six1 binding to Eya2 | Q15475+O00167 | AlphaScreen GST-Six1/His-Eya2 binding, biochemical; hits give low values; control for the full effect not named in the record | activity change, % (concentration not given with the values) | 0.56% of 360,000 active | AID 651725; in the data active = activity change below about -65%; inconclusive = about -30% to -65%; inactive = above about -30%; further: on the % scale 0 is the no-effect control and ±100 the full control effect
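Homogeneous AlphaScreen proximity assay pairing GST-Six1 with His-tagged Eya2 (added as 5X mix: 250 nM and 500 nM) in 50 mM Tris pH 8.0, 300 mM NaCl, 1 mM TCEP. Glutathione donor and nickel acceptor beads; 1 h, 37 °C, dark.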
TRPV1 potentiator: enhances activation of the human vanilloid receptor TRPV1; TRPV1-expressing cells, Fluo-8 calcium influx, capsaicin EC20 potentiation; host cell line not named in the record; control for the full effect not named in the record; potentiation, % at 8.33 µM; 0.02% of 320,000 active; Q8NER1; active means potentiation above 80%; inconclusive means 30% to 80%; inactive means below 30%; further: 0% is about no effect
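Cells expressing TRPV1 were dye-loaded with Fluo-8 and read kinetically: 10 s baseline, 3 min after compound (agonist portion), then 2 min after EC20 capsaicin (allosteric enhancer portion). Calcium-bound dye fluorescence at 480/520 nm.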
Numbers without * were called inactive; ? = inconclusive; · = not tested or not shown; & = joins results of further samples.

Every second line gives: Sfp PPTase inh | CtBP-E1A blk | D2 PAM | PINK1 expr mod | D2 agonist | Six1-Eya2 inh | TRPV1 potentiator
- C=Cn1c(N2CCOCC2)nc2c1c(=O)[nH]c(=O)n2C
  12% | 3 | -4 | -3.4% | 1.1 | -1 | 14
- C#CCSc1nc(N)c2c(n1)OC(N)=C(C#N)C2c1cccnc1 (stereo not given)
  23% | 34 | 11 | 2.6% | 7.7 | -3 | ?
- CCCN1CCN(c2nc3c([nH]2)c(=N)ncn3CC(O)CO)CC1 (stereo not given)
  8% | 0 | 6 | -1.5% | -1.3 | 1 | 9
- CN=C1SC(CC(=O)Nc2ccccc2F)C(=O)N1/N=C/c1ccc(O)c(OC)c1 (stereo not given)
  -2% | 1 | -5 | 4.3% | -1.1 | 5 | 19
- FC(F)(F)c1ccccc1CN1CCC(Cc2ccccc2)CC1
  -18% | 17 | -10 | ? | 6.6 | 18 | -19
- Cc1nn(-c2ccccc2)c(N)c1N=Nc1ccc(Cl)cc1
  ? | -19 | -12 | 3.7% | -0.8 | -23 | -21
- N/C(=N\OC(=O)/C=C/c1ccccc1Cl)c1cccnc1
  -4% | -5 | 20 | 5.5% | 5.1 | -1 | -20
- C[C@H](NC(=O)c1nc[nH]c1C(=O)NCc1ccc(CNC(=O)OC(C)(C)C)cc1)C(=O)OCc1ccccc1
  · | 4 | -11 | 17% | 4.4 | -9 | ·
- COc1ccc([C@H]2CC(=O)C=C(c3cc(Cl)ccc3C)C2)cc1
  · | · | -7 | 4.3% | 1.8 | 5 | -3
- CN(C(=O)C1CCOC1)c1nnc(-c2ccccn2)s1 (stereo not given)
  21% | -2 | -20 | -0.7% | -3.1 | -8 | 2
- CC(C)(C)Cc1nnc(NC(=O)c2ccco2)s1
  8% | -11 | -14 | 0.9% | -2.3 | -3 | 3
- CCOC(=O)c1c(CN2CCCCC2)n(C)c2ccc(OC)c(S(=O)(=O)c3ccccc3)c12
  11% | 11 | -14 | 1.8% | -4.9 | 3 | -8
- COC(=O)CC1(C(=O)OC)Oc2ccc(Br)cc2C(=O)N1c1cccc(Cl)c1Cl (stereo not given)
  -4% | -2 | -9 | 8.9% | 2.2 | -10 | -6
- CCCn1c(=N)c(S(=O)(=O)c2ccccc2)cc2c(=O)n3ccccc3nc21
  6% | -3 | -5 | 13% | -5.5 | -4 | -11
- COc1ccc(NC(=O)c2cccc(NC(=O)C(C)C)c2)c([N+](=O)[O-])c1
  7% | -10 | -9 | 15% | 4.3 | -8 | -4
- CCOC(=O)c1cnn(-c2ccc(F)cc2)c1N
  22% | 6 | -2 | -2.7% | -3.1 | 11 | -23
- Cc1cccc(Cc2ncc(C(F)(F)F)cc2Cl)c1
  19% | · | -11 | 3.1% | -0.2 | 9 | 17
- CCCCN1C[C@H](c2ccccc2)[C@@H](CC(=O)NC)C1=O
  · | 0 | 3 | -0.3% | -7.9 | 17 | ·
- CCOCCCNS(=O)(=O)c1ccc(NC(=O)C2CC(=O)N(c3ccc(C)cc3)C2)cc1 (stereo not given)
  14% | -1 | -6 | 0.2% | 2.7 | 3 | 5
- CCOC(=O)c1cn(CC2CC2)c2cc(F)c(F)cc2c1=O
  11% | 4 | -6 | 1.4% | 3.5 | -2 | -2
- Clc1cccc(Cl)c1COc1ccccc1CNn1cnnc1
  6% | 0 | -7 | 7.6% | ? | 7 | -7
- CCOC(=O)c1[nH]c2c(OCC)nc(OCC)nc2c1Br
  · | 13 | -9 | 5.7% | -1.1 | -1 | ·
- CCN(CC)C(=O)c1ccc2c(=O)n(Cc3cccc(Br)c3)c(=S)[nH]c2c1
  9% | · | -13 | 2.0% | -4.3 | 6 | 9
- COc1ccc(O)c(/C=N/NC(=O)CN2CCS(=O)(=O)CC2)c1
  20% | -71* | -10 | 0.5% | 7.2 | ? | -5
- O=C(NCc1nc2ccccc2[nH]1)C1=C[C@@H](c2ccc(C(F)(F)F)cc2)C[C@@H](OCCCCO)O1
  · | -3 | -8 | -1.5% | -5.0 | 5 | ·
- CCc1ccc(OCC(=O)O/N=C(\N)c2ccncc2)c(Br)c1
  -2% | 7 | -4 | 0.1% | -1.4 | 8 | 4
- COC(=O)c1c(C)nc(C)c(C(=O)OC)c1-c1ccsc1
  16% | · | -26 | 1.1% | -5.7 | -2 | -2
- COC(=O)c1sccc1NC(=O)Nc1ccccc1C
  2% | 2 | 9 | -0.6% | -1.1 | 1 | -4
- O=C(Cn1nnc(-c2ccccc2)n1)N/N=C/c1cc([N+](=O)[O-])c(Cl)cc1Cl
  12% | -15 | -1 | 0.0% | -6.1 | -1 | -1
- Cc1cccn2cc(-c3cc4ccccc4oc3=O)nc12
  ? | 5 | -6 | 3.9% | -1.0 | 10 | 6
- Nc1nc2c(ncn2[C@@H]2O[C@H](CNS(=O)(=O)C3CC3)[C@@H](O)[C@H]2O)c(=O)[nH]1
  · | -6 | -6 | 3.4% | -2.4 | 10 | ·
- O=C(/C=C/c1ccccc1Cl)OCC(=O)N1CCc2ccccc21
  · | -9 | 3 | 1.0% | -1.7 | -6 | ·
- Cc1ccc(S(=O)(=O)/N=C(\c2ccc(Cl)cc2)N2CCOCC2)cc1
  -7% | 0 | 0 | 0.6% | -2.5 | 1 | -4
- COc1ccc(/C=N/n2cncn2)cc1COc1ccc(NC(C)=O)cc1
  -6% | 3 | -3 | 1.0% | -1.8 | 1 | 2
- C[n+]1ccccc1C1CCCC/C1=N\Nc1ccc([N+](=O)[O-])cc1[N+](=O)[O-] (stereo not given)
  -2% | 15 | 11 | 8.0% | 0.2 | 8 | 7
- CCCn1nnnc1SCC(=O)N(C(C)C)C(C)C
  -23% | -8 | 0 | -0.1% | -0.8 | -8 | 6
- CNC(=S)N1CCC(NC(=O)C(Cc2ccc(OC)cc2)NC(C)=O)CC1 (stereo not given)
  8% | -15 | -5 | -1.1% | -3.0 | 3 | -5
- O=C1c2ccccc2C(=O)N1Cc1nc2ccccc2c(=O)n1CCCn1ccnc1
  16% | 3 | 10 | -2.3% | -0.3 | -4 | 3
- O=C(O)CCC(=O)NNC(=O)c1cccs1
  9% | 0 | 3 | 0.4% | 0.4 | -14 | -9
- CCCCNC(=O)CSc1nc2ccc(NC(=O)CSc3nnc(N)s3)cc2s1
  -10% | -7 | 3 | 1.3% | 1.7 | 2 | 1
- CC(=O)NC(Cc1ccc(C(C)C)cc1)C(=O)NC1CCN(c2nc(C)cc(C)n2)CC1 (stereo not given)
  0% | 5 | 10 | 0.7% | -1.9 | 1 | -15
- NC(=O)NCC(=O)N1CCC(C(O)(c2ccccc2)c2ccccc2)CC1
  8% | 9 | 0 | 3.5% | -1.7 | 2 | 11
- COc1ccc(-c2cc(C(F)(F)F)nc(S(=O)(=O)CCCC(=O)Nc3cccnc3Cl)n2)cc1OC
  -11% | -5 | -1 | 4.6% | 2.6 | -2 | 11
- CN(C)c1ccc(S(=O)(=O)N2CCCCC2)cc1NC(=O)CN1C(=O)NC(C)(c2ccccc2)C1=O (stereo not given)
  · | -1 | -13 | 1.6% | 3.9 | -7 | 18
- CSc1ccccc1NC(=O)c1ccc(N2CC3CC(C2)c2cccc(=O)n2C3)c(NC(=O)c2ccncc2)c1 (stereo not given)
  13% | 1 | -13 | -0.5% | -0.6 | -2 | 0
- Cc1ccc(SCCN2CCN(CC(C)C)CCC2=O)cc1
  -7%&1% | 1 | -15 | 2.1% | -2.7 | -1 | -13
- CCn1cc(/C=C2\SC(=O)N(CC(=O)Nc3ccc4c(c3)OCO4)C2=O)c2ccccc21
  -9% | 10 | -12 | 4.3% | -3.2 | 3 | 13
- Cc1ccc(S(=O)(=O)N(C)CCCC(=O)Nc2cc(C)ccc2C)cc1
  6% | 0 | -6 | 1.2% | -2.1 | -8 | -13

Whole records, looked up by structure.
Listed for CCN(CC)C(=O)c1ccc2c(=O)n(Cc3cccc(Br)c3)c(=S)[nH]c2c1 → Sfp PPTase inh: 9%; CtBP-E1A blk: ·; D2 PAM: -13; PINK1 expr mod: 2.0%; D2 agonist: -4.3; Six1-Eya2 inh: 6; TRPV1 potentiator: 9
Listed for CC(=O)NC(Cc1ccc(C(C)C)cc1)C(=O)NC1CCN(c2nc(C)cc(C)n2)CC1 (stereo not given) → Sfp PPTase inh: 0%; CtBP-E1A blk: 5; D2 PAM: 10; PINK1 expr mod: 0.7%; D2 agonist: -1.9; Six1-Eya2 inh: 1; TRPV1 potentiator: -15

Compounds above containing fluorine (seven):
Every second line gives: Sfp PPTase inh | CtBP-E1A blk | D2 PAM | PINK1 expr mod | D2 agonist | Six1-Eya2 inh | TRPV1 potentiator
- CN=C1SC(CC(=O)Nc2ccccc2F)C(=O)N1/N=C/c1ccc(O)c(OC)c1 (stereo not given)
  -2% | 1 | -5 | 4.3% | -1.1 | 5 | 19
- FC(F)(F)c1ccccc1CN1CCC(Cc2ccccc2)CC1
  -18% | 17 | -10 | ? | 6.6 | 18 | -19
- CCOC(=O)c1cnn(-c2ccc(F)cc2)c1N
  22% | 6 | -2 | -2.7% | -3.1 | 11 | -23
- Cc1cccc(Cc2ncc(C(F)(F)F)cc2Cl)c1
  19% | · | -11 | 3.1% | -0.2 | 9 | 17
- CCOC(=O)c1cn(CC2CC2)c2cc(F)c(F)cc2c1=O
  11% | 4 | -6 | 1.4% | 3.5 | -2 | -2
- O=C(NCc1nc2ccccc2[nH]1)C1=C[C@@H](c2ccc(C(F)(F)F)cc2)C[C@@H](OCCCCO)O1
  · | -3 | -8 | -1.5% | -5.0 | 5 | ·
- COc1ccc(-c2cc(C(F)(F)F)nc(S(=O)(=O)CCCC(=O)Nc3cccnc3Cl)n2)cc1OC
  -11% | -5 | -1 | 4.6% | 2.6 | -2 | 11
